Source: PubChem BioAssay
ID4 SMM: binders of human ID4 protein, primary screen, biochemical, small molecule microarray, single point; Flag-ID4 binding, fluorescence F/B; DNA-binding protein inhibitor ID-4 (Homo sapiens), P47928; 31,000 compounds, 1.2% hits; calls only;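 active = spot signal over background at p below 0.07 in all four prints; compounds were printed on slides so no solution concentration is given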;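 also: a binder raises fluorescence above local background on the spot; about 2 pmol printed per array spot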
Target sequence (P47928 whole entry, looked up): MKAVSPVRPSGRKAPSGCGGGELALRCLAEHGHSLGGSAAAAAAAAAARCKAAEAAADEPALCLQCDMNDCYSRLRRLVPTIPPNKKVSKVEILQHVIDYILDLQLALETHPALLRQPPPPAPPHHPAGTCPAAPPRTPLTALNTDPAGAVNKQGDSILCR
STAT3 SMM: STAT3 binders, primary screen, biochemical, small molecule microarray, single point, set 2. 17,000 compounds, 0.2% hits. calls only. His-STAT3 binding, anti-His fluorescence. Signal transducer and activator of transcription 3 (Homo sapiens), P40763;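 active = compounds whose four printed spots each show fluorescence over background unusually high for their array block, chance value under 7%; compounds were printed on slides so no solution concentration is given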;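 also: about 2 pmol printed per array spot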
mut p53 SMM: binders of human mutant p53, primary screen, biochemical, small molecule microarray, anti-GST fluorescence | small molecule microarray binding | 17,000 compounds, 0.4% hits | AID 624136, 2012 | mutant tumor protein p53 (GST-tagged), Homo sapiens | calls only;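 active = compounds whose four printed spots each glow above background more than chance allows, each with a p-value under 7%; compounds were printed on slides so no solution concentration is given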;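 also: about 2 pmol printed per array spot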
Myc binder: binders of human c-Myc, primary screen, biochemical, small molecule microarray, anti-His fluorescence; His-c-Myc binding; calls only; 17,000 compounds, 1.5% hits; AID 624141, 2012;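 active = spot fluorescence over background with P-value below 7% in all four replicate spots, showing protein binding; compounds were printed on slides so no solution concentration is given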;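 also: score is binary with 100 for all four spots passing and 0 otherwise; about 2 pmol printed per array spot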
Target sequence (P01106 whole entry, looked up): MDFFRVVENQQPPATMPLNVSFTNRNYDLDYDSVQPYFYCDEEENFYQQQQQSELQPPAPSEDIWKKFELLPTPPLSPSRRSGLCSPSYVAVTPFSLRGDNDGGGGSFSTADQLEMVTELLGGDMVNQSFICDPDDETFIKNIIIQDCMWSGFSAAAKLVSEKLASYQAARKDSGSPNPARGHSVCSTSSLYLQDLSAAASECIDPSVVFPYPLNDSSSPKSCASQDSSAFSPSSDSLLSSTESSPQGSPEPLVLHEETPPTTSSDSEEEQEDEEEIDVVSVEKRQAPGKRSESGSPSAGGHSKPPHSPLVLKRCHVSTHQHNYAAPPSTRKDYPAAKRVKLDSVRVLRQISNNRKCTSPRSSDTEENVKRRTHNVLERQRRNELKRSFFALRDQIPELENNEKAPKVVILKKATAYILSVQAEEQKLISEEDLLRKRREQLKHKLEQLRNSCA
Calls only; i = inactive; . = not tested or not shown.

SMILES,STAT3 SMM,mut p53 SMM,Myc binder,ID4 SMM
C[C@@H]1CN([C@@H](C)CO)C(=O)c2cccc(NS(C)(=O)=O)c2O[C@@H]1CN(C)C(=O)NC1CCCCC1,i,i,i,i
C[C@@H]1CN([C@@H](C)CO)C(=O)c2cccc(NC(=O)Nc3ccc4c(c3)OCO4)c2O[C@@H]1CN(C)S(=O)(=O)c1ccccc1,i,i,i,.
C[C@H](CO)N1C[C@H](C)[C@H](CN(C)S(=O)(=O)c2ccc(Cl)cc2)Oc2c(NC(=O)Nc3cccc4ccccc34)cccc2C1=O,i,i,i,i
COc1ccc(S(=O)(=O)N(C)C[C@@H]2Oc3ccc(NC(=O)CCCN(C)C)cc3CC(=O)N([C@@H](C)CO)C[C@H]2C)cc1,i,i,i,i
COc1ccc(NC(=O)N(C)C[C@H]2Oc3ccc(NS(=O)(=O)c4ccccc4)cc3C(=O)N([C@@H](C)CO)C[C@H]2C)cc1,i,i,i,i
C[C@@H]1CN([C@@H](C)CO)C(=O)c2cc(NC(=O)Cc3cn(C)c4ccccc34)ccc2O[C@@H]1CN(C)CC1CC1,i,i,i,i
C[C@@H]1CN([C@H](C)CO)C(=O)c2cccc(NC(=O)C3CCOCC3)c2O[C@H]1CN(C)Cc1ccc(Oc2ccccc2)cc1,i,i,i,i
C[C@@H]1CCCCO[C@H](CN(C)C(=O)Cc2ccccc2)[C@@H](C)CN([C@@H](C)CO)C(=O)c2cc(NC(=O)c3ccncc3)ccc2O1,i,i,i,i
COC(=O)C1=C[C@@H](O)[C@@H](O)[C@H](O[C@@H]2O[C@H](COC(=O)/C=C/c3ccccc3)[C@@H](O)[C@H](O)[C@H]2O)C1,i,i,i,.
CC(C)c1ccc2c(c1)C(O)CC1C(C)(CO)CCCC21C (stereo not drawn),i,i,i,i
Cn1c(SCc2nc3ccccc3[nH]2)nnc1-c1ccccn1,i,i,i,i
CO[C@H]1/C=C\O[C@@]2(C)Oc3c(C)c(O)c4c(O)c(c(/C=N/N5CCN(C)CC5)c(O)c4c3C2=O)NC(=O)/C(C)=C\C=C[C@H](C)[C@H](O)[C@@H](C)[C@@H](O)[C@@H](C)[C@H](OC(C)=O)[C@@H]1C,i,i,i,.
C[C@H]1CCCCO[C@H](CN(C)C)[C@@H](C)CN([C@@H](C)CO)C(=O)c2cc(NS(=O)(=O)c3cn(C)cn3)ccc2O1,i,i,i,i
CC(=O)c1cccc(NC(=O)c2ccc(CNS(=O)(=O)c3ccc(C(C)(C)C)cc3)cc2)c1,i,i,i,i
C[C@H]1CN([C@@H](C)CO)C(=O)CCCn2cc(nn2)CO[C@H]1CN(C)C(=O)NC1CCCCC1,i,i,i,.
Cc1noc(C)c1S(=O)(=O)N(C)C[C@H]1OCCCC[C@@H](C)Oc2ccc(NS(C)(=O)=O)cc2C(=O)N([C@@H](C)CO)C[C@H]1C,i,i,i,i
C[C@@H]1CCCCO[C@@H](CN(C)C)[C@@H](C)CN([C@@H](C)CO)C(=O)c2cc(NS(=O)(=O)c3ccc(Cl)cc3)ccc2O1,i,i,i,i
C[C@@H]1CCCCO[C@@H](CN(C)C(=O)CCC(F)(F)F)[C@@H](C)CN([C@H](C)CO)C(=O)c2cc(N(C)C)ccc2O1,i,i,i,i
COc1cc(O)c(CC=C(C)C)c(O)c1C(=O)CCc1ccc(O)cc1,i,i,i,.
C[C@@H]1CN([C@@H](C)CO)C(=O)c2cc(NC(=O)c3ccncc3)ccc2O[C@@H](C)CCCCO[C@@H]1CN(C)S(=O)(=O)c1ccccc1,i,i,i,i

Just mut p53 SMM (two entries from above):
| SMILES | mut p53 SMM |
| --- | --- |
| C[C@@H]1CN([C@H](C)CO)C(=O)c2cccc(NC(=O)C3CCOCC3)c2O[C@H]1CN(C)Cc1ccc(Oc2ccccc2)cc1 | i |
| C[C@@H]1CCCCO[C@H](CN(C)C(=O)Cc2ccccc2)[C@@H](C)CN([C@@H](C)CO)C(=O)c2cc(NC(=O)c3ccncc3)ccc2O1 | i |

In the list so far, 2 have a Cl atom:
SMILES,STAT3 SMM,mut p53 SMM,Myc binder,ID4 SMM
C[C@H](CO)N1C[C@H](C)[C@H](CN(C)S(=O)(=O)c2ccc(Cl)cc2)Oc2c(NC(=O)Nc3cccc4ccccc34)cccc2C1=O,i,i,i,i
C[C@@H]1CCCCO[C@@H](CN(C)C)[C@@H](C)CN([C@@H](C)CO)C(=O)c2cc(NS(=O)(=O)c3ccc(Cl)cc3)ccc2O1,i,i,i,i

Going on with the list.
SMILES,STAT3 SMM,mut p53 SMM,Myc binder,ID4 SMM
C[C@H](CO)N1C[C@H](C)[C@H](CN(C)C(=O)C2CCCCC2)OCCCC[C@H](C)Oc2ccc(N(C)C)cc2C1=O,i,i,i,i
CC(NS(=O)(=O)c1ccccc1)C(=O)Nc1ccc2c(c1)OCCO2 (stereo not drawn),i,i,i,i
C[C@@H]1CN([C@H](C)CO)C(=O)c2cccc(NC(=O)NC3CCCCC3)c2O[C@@H]1CN(C)S(=O)(=O)c1cccs1,i,i,i,i
COc1ccc(S(=O)(=O)N(C)C[C@H]2Oc3ccc(NS(=O)(=O)c4ccc(F)cc4)cc3CC(=O)N([C@@H](C)CO)C[C@H]2C)cc1,i,i,i,.
COc1ccc(NC(=O)Nc2ccc3c(c2)C(=O)N([C@@H](C)CO)C[C@@H](C)[C@H](CN(C)S(C)(=O)=O)O3)cc1,i,i,i,i
C/C=C/C=C/C(=O)c1cc(C)c(O)c(C)c1O,i,i,i,i
COc1cc(NC(=O)CCN2C(=O)c3ccccc3C2=O)cc(OC)c1,i,i,i,i
C[C@@H]1CCCCO[C@H](CN(C)Cc2ccncc2)[C@H](C)CN([C@H](C)CO)C(=O)c2cc(NC(=O)Nc3ccccc3)ccc2O1,i,i,i,i
C[C@H](CO)N1C[C@H](C)[C@@H](CN(C)Cc2ccc(C(=O)O)cc2)OCc2cnnn2CCCC1=O,i,i,i,.
COC(=O)C(CC#Cc1ccc2c(c1)[C@]1(C(=O)N2)[C@H](C(=O)N2CCN(c3ncccn3)CC2)[C@H]2C(=O)O[C@H](c3ccccc3)[C@H](c3ccccc3)N2[C@@H]1c1ccc(OCCO)cc1)C(=O)OC,i,i,i,.
O=C(O)CCC1OC(=O)C(=O)C1c1ccccc1 (stereo not drawn),i,i,i,i
O=C(COc1ccccc1[N+](=O)[O-])Nc1cc2nn(-c3ccccc3)nc2cc1Cl,i,i,i,i
CO[C@H]1O[C@H](CO)[C@@H](OC(=O)Nc2ccc3c(c2)OCO3)[C@H](OC(=O)Nc2ccccc2)[C@H]1OC(=O)Nc1ccccc1,i,i,i,i
CCCNC(=O)COc1ccc(C=O)cc1,i,i,i,i
COc1ccc2oc(-c3ccccc3)c(O)c(=O)c2c1,i,i,i,.
OC(CNCc1ccco1)c1ccccc1 (stereo not drawn),i,i,i,i
Cc1ccc(S(=O)(=O)Nc2ccccc2CNc2cnc3ccccc3c2)cc1,i,i,i,i
Cc1cc(C(=O)Nc2cccc3c2O[C@@H](CN(C)S(=O)(=O)c2cccs2)[C@H](C)CN([C@@H](C)CO)C3=O)n(C)n1,i,i,i,i
O=[N+]([O-])c1ccc(NCCNS(=O)(=O)c2ccc(Br)cc2)c(C(F)(F)F)c1,i,i,i,i
C[C@@H]1CN([C@@H](C)CO)C(=O)Cc2cc(NC(=O)Nc3cccc4ccccc34)ccc2O[C@H]1CN(C)C(=O)NC1CCCCC1,i,i,i,i
COc1ccc([Si](C)(C)[C@@H]2[C@@H](CCO)O[C@]3(C(=O)N(Cc4cccc(NC(=O)[C@H](C)O)c4)c4ccccc43)[C@H]2C)cc1,i,i,i,.
C[C@@H]1CN([C@H](C)CO)C(=O)c2cccc(NS(=O)(=O)c3ccc(Cl)cc3)c2O[C@@H]1CN(C)Cc1ccc2c(c1)OCO2,i,i,i,i
C[C@@H]1CCCCO[C@H](CN(C)C)[C@H](C)CN([C@@H](C)CO)C(=O)c2cc(N(C)C)ccc2O1,i,i,i,i
COc1ccc(S(=O)(=O)N(C)C[C@@H]2OCCCC[C@H](C)Oc3ccc(NC(=O)Nc4ccc5c(c4)OCO5)cc3C(=O)N([C@H](C)CO)C[C@H]2C)cc1,i,i,i,.
C[C@H]1CCCCO[C@H](CN(C)Cc2ccc3c(c2)OCO3)[C@@H](C)CN([C@@H](C)CO)C(=O)c2cc(NS(=O)(=O)c3ccccc3)ccc2O1,i,i,i,i
CC(C)NC(=O)N(C)C[C@H]1Oc2ccc(NC(=O)C3CC3)cc2CC(=O)N([C@@H](C)CO)C[C@H]1C,i,i,i,i
Cc1ccc(-c2nc3cccnc3o2)cc1NC(=O)COc1ccc(C(C)(C)C)cc1,i,i,i,i
CNC[C@@H]1Oc2ccc(NC(=O)Cn3cnnn3)cc2CC(=O)N([C@@H](C)CO)C[C@H]1C,i,i,i,i
Cc1noc(C)c1NC(=O)N(C)C[C@@H]1OCCCC[C@H](C)Oc2ccc(NC(=O)CCC(F)(F)F)cc2C(=O)N([C@H](C)CO)C[C@@H]1C,i,i,i,i
Cc1ccc(N(C(C)C(=O)Nc2ccccc2C(=O)N2CCCC2)S(C)(=O)=O)cc1 (stereo not drawn),i,i,i,i
C[C@@H]1CN([C@H](C)CO)C(=O)c2cccc(N(C)C)c2O[C@@H]1CN(C)Cc1ccc(Cl)c(Cl)c1,i,i,i,i
Cc1ccc(S(=O)(=O)NC(C)(C)C(=O)Oc2cc(C)c3c(c2)oc(=O)c2ccccc23)cc1,i,i,i,i
Cc1noc(C)c1S(=O)(=O)Nc1cccc2c1O[C@H](CN(C)Cc1ccc(C(F)(F)F)cc1)[C@H](C)CN([C@H](C)CO)C2=O,i,i,i,i
C[C@@H]1CN([C@@H](C)CO)C(=O)c2cc(NC(=O)c3ccncc3)ccc2O[C@@H](C)CCCCO[C@H]1CN(C)C(=O)C1CCCCC1,i,i,i,i
Cc1noc(C)c1S(=O)(=O)Nc1ccc2c(c1)C(=O)N([C@@H](C)CO)C[C@H](C)[C@H](CN(C)C)OCCCC[C@H](C)O2,i,i,i,i
C[C@@H]1CCCCO[C@H](CN(C)S(=O)(=O)c2ccc(Cl)cc2)[C@H](C)CN([C@@H](C)CO)C(=O)c2cc(NC(=O)c3ccccc3)ccc2O1,i,i,i,.
COc1ccc(CN(C)C[C@H]2Oc3ccc(NC(=O)c4ccncc4)cc3CC(=O)N([C@@H](C)CO)C[C@@H]2C)cc1,i,i,i,i
C[C@H](CO)N1C[C@H](C)[C@H](CN(C)Cc2ccncc2)OCc2cn(nn2)CCCC1=O,i,i,i,i
CNC[C@@H]1Oc2c(NC(=O)c3nc4ccccc4s3)cccc2C(=O)N([C@H](C)CO)C[C@@H]1C,i,i,i,i
C[C@H]1CN([C@@H](C)CO)C(=O)Cc2cc(N(C)C)ccc2O[C@H]1CN(C)S(=O)(=O)c1ccccc1,i,i,i,i
CC(C)NC(=O)Nc1ccc2c(c1)C(=O)N([C@@H](C)CO)C[C@@H](C)[C@H](CN(C)S(=O)(=O)c1cccs1)OCCCC[C@@H](C)O2,i,i,i,i
C[C@@H]1CN([C@@H](C)CO)C(=O)Cc2cc(NC(=O)Nc3ccccc3)ccc2O[C@@H]1CN(C)C(=O)Nc1ccc(F)cc1,i,i,i,i
CNC[C@@H]1Oc2c(NS(=O)(=O)c3ccc(Cl)cc3)cccc2C(=O)N([C@@H](C)CO)C[C@H]1C,i,i,i,i
C[C@H](CO)N1C[C@H](C)[C@H](CN(C)C(=O)NC2CCCCC2)Oc2c(NC(=O)c3ccncc3)cccc2C1=O,i,i,i,i
C[C@@H]1CCCCO[C@@H](CN(C)C(=O)Nc2ccc(F)cc2)[C@@H](C)CN([C@H](C)CO)C(=O)c2cc(NS(=O)(=O)c3ccccc3)ccc2O1,i,i,i,i
C[C@H]1CN([C@@H](C)CO)C(=O)Cc2cc(NC(=O)CCN3CCOCC3)ccc2O[C@@H]1CN(C)S(=O)(=O)c1cn(C)cn1,i,i,i,i
CS(=O)(=O)N(CC(=O)Nc1cc(Cl)ccc1Oc1ccccc1)C1CCCCC1,i,i,i,i
C[C@@H]1CN([C@H](C)CO)C(=O)c2cc(N(C)C)ccc2O[C@H]1CN(C)Cc1ccc2c(c1)OCO2,i,i,i,i
C[C@@H]1CN([C@@H](C)CO)C(=O)CCCn2nncc2CO[C@@H]1CN(C)S(=O)(=O)c1ccc(Cl)cc1,i,i,i,i
CCCN(C)C[C@@H]1Oc2ncc(C#CCN(C)C)cc2C(=O)N([C@H](C)CO)C[C@@H]1C,i,i,i,i
COc1ccc(CN(C)C[C@@H]2Oc3c(NS(=O)(=O)c4ccc(Cl)cc4)cccc3C(=O)N([C@@H](C)CO)C[C@@H]2C)cc1,i,i,i,i
Cc1cc(C)nc(SC(C)C(=O)Nc2cccc3ccccc23)n1 (stereo not drawn),i,i,i,i
Cc1cc(Cl)ccc1N(CC(=O)Nc1cc(Cl)cc(Cl)c1)S(C)(=O)=O,i,i,i,i
CC(Sc1ncnc2sc3c(c12)CCCC3)C(=O)Nc1ccc(Br)cc1 (stereo not drawn),i,i,i,i

An excerpt; the hit share may differ from the screen's.
